Bioassay records from PubChem.
TRPV1 PAM: potentiators of human vanilloid receptor 1 (TRPV1); Q8NER1; TRPV1-expressing cells, Fluo-8 calcium influx, capsaicin EC20 potentiation; host cell line not named in the record; control for the full effect not named in the record; potentiation, % at 8.33 µM; 0.02% of 320,000 active; active means potentiation above 80%; inconclusive means 30% to 80%; inactive means below 30%; note: 0% is about no effect
Target sequence (Q8NER1 whole entry, looked up): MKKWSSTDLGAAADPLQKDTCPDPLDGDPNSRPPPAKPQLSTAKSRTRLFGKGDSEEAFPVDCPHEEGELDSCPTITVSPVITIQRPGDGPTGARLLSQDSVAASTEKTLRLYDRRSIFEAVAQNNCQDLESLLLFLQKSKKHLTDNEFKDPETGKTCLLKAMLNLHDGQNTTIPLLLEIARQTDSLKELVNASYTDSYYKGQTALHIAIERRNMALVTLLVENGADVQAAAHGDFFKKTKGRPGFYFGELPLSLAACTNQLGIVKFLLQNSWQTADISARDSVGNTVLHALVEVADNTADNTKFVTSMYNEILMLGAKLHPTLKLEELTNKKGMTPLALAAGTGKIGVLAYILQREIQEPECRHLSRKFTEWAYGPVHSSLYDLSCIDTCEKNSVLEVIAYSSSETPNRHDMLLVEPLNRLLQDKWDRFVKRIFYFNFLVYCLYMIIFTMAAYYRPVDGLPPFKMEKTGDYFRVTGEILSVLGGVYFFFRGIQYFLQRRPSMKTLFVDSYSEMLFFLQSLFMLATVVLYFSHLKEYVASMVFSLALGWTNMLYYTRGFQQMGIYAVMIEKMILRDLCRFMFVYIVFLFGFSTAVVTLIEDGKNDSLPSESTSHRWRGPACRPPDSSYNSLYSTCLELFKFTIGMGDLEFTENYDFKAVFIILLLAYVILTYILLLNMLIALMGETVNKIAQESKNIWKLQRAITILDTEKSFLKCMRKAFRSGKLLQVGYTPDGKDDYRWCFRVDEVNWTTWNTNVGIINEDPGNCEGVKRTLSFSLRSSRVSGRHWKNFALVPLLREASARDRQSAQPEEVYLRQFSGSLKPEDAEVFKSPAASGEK
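TRPV1-expressing cells were cultured overnight at 35.5C and loaded with Fluo-8 calcium dye for 40 to 90 min at room temperature. After a 10 s baseline, compound was added and calcium influx was read kinetically for 3 min (ex 480/em 520 nm).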
PINK1 modulator: changes PINK1 expression. Potency, µM (doses to about 76.6 µM), inactives show at the highest dose activation (PINK1 increase), hits mostly activators. 0.2% of 410,000 active. PINK1 immunofluorescence, high-content cytometry, 24 h; active = well fitted activation curve with a large enough effect; inconclusive = small, poorly fitted or top-dose-only effect; inactive = flat fitted curve, though single readings scatter; cell line not stated here;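 note: potency is the fitted concentration of half-maximal effect; % of control where 0% means no effect; nearly all actives have a fitted effect of over 65% in size; a mitochondrial uncoupler was the plate control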
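Stable cell line treated 24 h with compounds at 5 concentrations (CCCP controls), then fixed and immunostained for PINK1 plus nuclear and cell stains; PINK1 immunofluorescence quantified by laser-scanning microplate cytometry.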
Sfp PPTase inh: inhibitors of Bacillus subtilis Sfp phosphopantetheinyl transferase | Q9F4F7 | Biochemical Sfp PPTase activity, qHTS | Potency, µM, for the others: max response, negative = inhibition, hits mostly inhibitors | 3.5% of 310,000 active | AID 1490; active = well fitted inhibition curve with a large enough effect; inconclusive = small, poorly fitted or top-dose-only effect, or another doubt; inactive = no such curve, though single readings can be large or run the other way;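 note: the enzyme is Sfp with the accession as filed and its product quenches rhodamine fluorescence; potency is the fitted concentration of half-maximal effect; 0% = enzyme reaction without inhibitor and -100% = no enzyme wells; top concentration of the series not given in the record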
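Fluorescence-quenching assay with 15 nM Sfp, 5 uM rhodamine-CoA and 12.5 uM BHQ-2-labelled ybbR peptide in pH 7.6 Hepes/MgCl2 buffer. Enzyme was pre-incubated with compound for 15 min at room temperature. Rate was taken from the 30-min fluorescence change (525/598 nm).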
* = called active by the depositor; ? = inconclusive; . = not tested or not shown; & = joins results of further samples.

SMILES | TRPV1 PAM | PINK1 modulator | Sfp PPTase inh
O=C(O)[C@@H]1[C@@H]2C[C@H]3c4[nH]c5ccccc5c4CCN3C[C@@H]2CC[C@@H]1O | . | . | -24%
CCCC(=O)O[C@]1(C(=O)CCl)[C@H](C)C[C@@H]2[C@H]3CCC4=CC(=O)C=C[C@]4(C)[C@@]3(F)C(=O)C[C@@]21C | . | . | 11%
C[C@H]1C[C@@H]2[C@H]3CCC4=CC(=O)C=C[C@@]4(C)[C@@]3(Cl)[C@@H](O)C[C@]2(C)[C@]1(OC(=O)c1ccco1)C(=O)CCl | . | . | 35µM*
CN1CCC(Nc2ncc3ncnc(Nc4ccc(F)c(Cl)c4)c3n2)CC1 | . | . | -24%
COc1ccc([C@@H]2CNC(=O)C2)cc1OC1CCCC1 | . | . | -30%&-5%&8%&15%
CN=C(NC#N)Nc1ccc(C2=NNC(=O)CC2C)cc1 (stereo not drawn) | . | . | -5%&9%
CN1CCN(c2cc3c(cc2F)c(=O)c(C(=O)O)cn3-c2ccc(F)cc2)CC1 | . | . | 9%
COc1cc2oc(=O)ccc2cc1O | . | . | -3%
Cc1cn([C@H]2C[C@H](O)[C@@H](CO)O2)c(=O)[nH]c1=O | . | . | 20%&-1%
COc1c(O)cc2c(c1O)[C@@H]1O[C@@H](CO)[C@@H](O)[C@@H](O)[C@@H]1OC2=O | . | . | -2%
Cc1c(C(C)C)c(=O)n(-c2ccccc2)n1C | . | . | 12%
COC(=O)c1ccccc1C(=O)c1ccc(OCCN2CCCCC2)cc1 | . | . | 5%
C[C@@H]1[C@H](C)CC[C@@]2(C(=O)O[C@H]3O[C@@H](CO[C@H]4O[C@@H](CO)[C@@H](O[C@H]5O[C@@H](C)[C@@H](O)[C@@H](O)[C@@H]5O)[C@@H](O)[C@@H]4O)[C@@H](O)[C@@H](O)[C@@H]3O)CC[C@]3(C)C(=CC[C@H]4[C@@]5(C)C[C@@H](O)[C@@H](O)[C@](C)(CO)[C@@H]5CC[C@@]43C)[C@@H]12 | . | . | 5%
CCN1CC(CCN2CCOCC2)C(c2ccccc2)(c2ccccc2)C1=O (stereo not drawn) | . | . | 2%
CN1CCN(C(=O)C2CCCCC2)CC1 | . | . | 4%
Nc1ccc(S(=O)(=O)NCc2ccccc2)cc1 | . | . | 12%
NC(=O)c1ccc(-c2nc(-c3ccc4c(c3)OCO4)c(-c3ccccn3)[nH]2)cc1 | . | . | 6%&-1%&-16%
c1ccc(CNCCNCc2ccccc2)cc1 | . | . | 1%&16%
CCCCN(CCCC)CC(O)c1cc(Cl)cc2c1-c1ccc(Cl)cc1/C2=C/c1ccc(Cl)cc1 (stereo not drawn) | . | . | 45µM*
CCCN(CCC)C(=O)[C@@H](CCC(=O)O)NC(=O)c1ccccc1 | . | . | ?
OCCOCCOCCO | . | . | 14%
CC(C)[C@@H]1C(=O)N(S(C)(=O)=O)[C@H]2CCN(C(=O)/C=C\CN3CCCCC3)[C@@H]12 | . | . | 17%
Cc1ccc(C(=O)C(C)CN2CCCCC2)cc1 (stereo not drawn) | . | . | 26%
CCn1cc(C(=O)O)c(=O)c2cc(F)c(N3CCN[C@@H](C)C3)c(F)c21 | . | . | 15%
C[C@@H](Cc1cccc(C(F)(F)F)c1)NCCOC(=O)c1ccccc1 | . | . | 7%
COc1cc2[nH]c(=O)[nH]c(=O)c2cc1OC | . | . | 15%
CC1(C)Oc2ccc(C#N)cc2[C@H](N2CCCC2=O)[C@H]1O | . | . | -5%&14%
CC(C)(CO)[C@@H](O)C(=O)NCCCO | . | . | 9%&4%
CC[C@@]12CCCN3CCc4c(n(c5ccccc45)[C@](O)(C(=O)OC)C1)C32 (stereo partly drawn) | . | . | 18%
NC(=O)c1ccc([N+](=O)[O-])cc1Cl | . | . | 25%

A different layout for some results above.
compound,TRPV1 PAM,PINK1 modulator,Sfp PPTase inh
NC(=O)c1ccc(-c2nc(-c3ccc4c(c3)OCO4)c(-c3ccccn3)[nH]2)cc1,.,.,6%&-1%&-16%
c1ccc(CNCCNCc2ccccc2)cc1,.,.,1%&16%
CCCCN(CCCC)CC(O)c1cc(Cl)cc2c1-c1ccc(Cl)cc1/C2=C/c1ccc(Cl)cc1 (stereo not drawn),.,.,45µM*
CCCN(CCC)C(=O)[C@@H](CCC(=O)O)NC(=O)c1ccccc1,.,.,?
OCCOCCOCCO,.,.,14%
CC(C)[C@@H]1C(=O)N(S(C)(=O)=O)[C@H]2CCN(C(=O)/C=C\CN3CCCCC3)[C@@H]12,.,.,17%
Cc1ccc(C(=O)C(C)CN2CCCCC2)cc1 (stereo not drawn),.,.,26%
CCn1cc(C(=O)O)c(=O)c2cc(F)c(N3CCN[C@@H](C)C3)c(F)c21,.,.,15%
C[C@@H](Cc1cccc(C(F)(F)F)c1)NCCOC(=O)c1ccccc1,.,.,7%
COc1cc2[nH]c(=O)[nH]c(=O)c2cc1OC,.,.,15%
CC1(C)Oc2ccc(C#N)cc2[C@H](N2CCCC2=O)[C@H]1O,.,.,-5%&14%
CC(C)(CO)[C@@H](O)C(=O)NCCCO,.,.,9%&4%
CC[C@@]12CCCN3CCc4c(n(c5ccccc45)[C@](O)(C(=O)OC)C1)C32 (stereo partly drawn),.,.,18%
NC(=O)c1ccc([N+](=O)[O-])cc1Cl,.,.,25%

(listing goes on)
SMILES | TRPV1 PAM | PINK1 modulator | Sfp PPTase inh
NC(=O)NC(=O)Cc1ccccc1 | . | . | 8%
CCCCCCCCCCOCC(O)CN (stereo not drawn) | . | . | 0%
COc1ccc(-c2oc3c(CC=C(C)C)c(O[C@H]4OC(CO)C(O)C(O)C4O)cc(O)c3c(=O)c2O[C@@H]2OC(C)C(O)C(O)C2O)cc1 (stereo partly drawn) | . | . | -3%
O=C(Nc1ccc([N+](=O)[O-])cc1)Nc1ccc([N+](=O)[O-])cc1 | . | . | 4%
CCc1cc(-c2n[nH]c(C)c2-c2ccc3c(c2)OCCO3)c(O)cc1O | . | . | 6%
O=C(OC1C[C@@H]2CC3C[C@H](C1)N2CC3=O)c1c[nH]c2ccccc12 (stereo partly drawn) | . | . | 11%
COC(=O)Nc1nc2ccc(S(=O)c3ccccc3)cc2[nH]1 (stereo not drawn) | . | . | 19%
CCN(CCCCOC(=O)c1ccc(OC)c(OC)c1)[C@@H](C)Cc1ccc(OC)cc1 | . | . | 9%
CC(=O)O[C@@]12CO[C@@H]1C[C@H](O)[C@@]1(C)C(=O)[C@H](O)C3=C(C)[C@@H](OC(=O)[C@H](O)[C@@H](NC(=O)OC(C)(C)C)c4ccccc4)C[C@](O)([C@@H](OC(=O)c4ccccc4)[C@H]21)C3(C)C | 6 | . | 8.9µM*
C[C@@H]1C[C@H]2[C@@H]3C[C@H](F)C4=CC(=O)C(Cl)=C[C@]4(C)[C@@]3(F)[C@@H](O)C[C@]2(C)[C@@]1(O)C(=O)CO | 1 | . | 17%
COc1ccc(NC(=O)C2CCCN(c3nnc(C)c4c(C)n(-c5ccccc5)nc34)C2)cc1Cl (stereo not drawn) | . | 2.5% | .
Cc1cc(Cl)ccc1NC(=O)Cn1nc(C)c2c(C)n(-c3ccccc3)nc2c1=O | . | 0.7% | .
COc1ccc(Cn2c(CCC(=O)Nc3cccc(OC)c3)nc3cccnc32)cc1 | . | 2.0% | .
Cc1cc(NC(=O)C2CCN(S(=O)(=O)c3ccc4[nH]c(=O)oc4c3)CC2)ccc1Br | . | -0.3% | .
CCOc1ccccc1NC(=O)CSc1nc2ccccc2c2nc(CCn3cncc3C)nn12 | . | 2.0% | .
Cc1ccc(Cc2c(C)nc3c(-c4ccccc4)c(C)[nH]n3c2=O)cc1 | . | 23% | .
Cc1ccc(CNC(=O)C2CCN(S(=O)(=O)c3c(C)noc3/C=C/c3ccccc3F)CC2)o1 | . | 1.3% | .
Cc1nc2nc(NC(=O)c3cccc(Cl)c3)[nH]n2c(=O)c1Cc1ccccc1 | . | 11% | .
COc1cc(C(=O)NC(c2ccccc2Cl)c2cc(Cl)c3cccnc3c2O)cc(OC)c1OC (stereo not drawn) | . | ? | .
COc1ccc2c(CNCCc3ccccc3OC)c(C(=O)O)n(Cc3ccc(F)cc3Cl)c2c1 | . | 4.8% | .
Cc1nc2c([nH]1)c(=O)n(C)c(=O)n2Cc1ccco1 | . | -0.4%&0.7% | 29%
CC1(C)OC2CC(=O)OC[C@@]23C1CC(=O)[C@]1(C)C3CC[C@@]2(C)C(c3ccoc3)OC(=O)C3O[C@@]321 (stereo partly drawn) | . | 0.1% | 22%
CC(C)(C)c1ccc(S(=O)(=O)c2cnc(SCC(=O)Nc3ccc(F)c(Cl)c3)[nH]c2=O)cc1 | -6 | 1.3% | .

These rows are one share of the data, so the mix of outcomes need not match the whole.
